From PubChem BioAssay
PABP polyA inh – blocks human PABP binding to poly(A) RNA. inhibition, % at 35 µM. fluorescence polarization. 290,000 compounds, 1% hits. P11940. AID 2014;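 active = 50% or more with normal probe brightness, or confirmed in later tests; inconclusive = above 50% with abnormal brightness, or retests that disagree; inactive = below 50% or failed in later tests; about a fifth of its hits are not listed in these tables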;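 note: calls also rest on retests at 20 µM and on dose response follow-up; controls were probe without protein and protein plus probe with vehicle; some compounds called inactive have numbers as strong as hits; many hits fall short of the cut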
Target sequence (P11940 whole entry, looked up): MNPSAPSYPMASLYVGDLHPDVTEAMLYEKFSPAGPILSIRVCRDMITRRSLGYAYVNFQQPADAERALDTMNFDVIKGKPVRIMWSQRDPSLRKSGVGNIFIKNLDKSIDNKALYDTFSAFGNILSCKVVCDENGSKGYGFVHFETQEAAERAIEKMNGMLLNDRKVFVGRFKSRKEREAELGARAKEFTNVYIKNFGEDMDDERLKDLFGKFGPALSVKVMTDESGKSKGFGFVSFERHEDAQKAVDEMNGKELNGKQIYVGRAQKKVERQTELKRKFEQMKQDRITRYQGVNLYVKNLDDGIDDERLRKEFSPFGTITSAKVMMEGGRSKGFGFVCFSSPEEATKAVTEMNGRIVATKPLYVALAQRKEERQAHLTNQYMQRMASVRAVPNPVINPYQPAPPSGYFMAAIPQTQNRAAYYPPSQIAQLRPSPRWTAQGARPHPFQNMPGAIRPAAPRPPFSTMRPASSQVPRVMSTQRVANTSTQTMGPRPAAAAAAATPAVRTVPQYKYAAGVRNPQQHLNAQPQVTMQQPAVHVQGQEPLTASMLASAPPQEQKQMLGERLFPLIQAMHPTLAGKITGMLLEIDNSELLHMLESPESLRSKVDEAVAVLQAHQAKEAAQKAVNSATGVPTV
eIF4H inh – inhibitors of RNA binding by human eIF4H | Q15056 | eIF4H fluorescence polarization binding assay | inhibition, % at 35 µM | 290,000 compounds, 0.94% hits;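 active = 50% or more with normal probe brightness, or confirmed in later tests; inconclusive = above 50% with abnormal brightness, or retests that disagree; inactive = below 50% or failed in later tests; about a fifth of its hits are not listed in these tables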;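 note: calls also rest on retests at 20 µM and on dose response follow-up; 0% = protein and probe with vehicle and 100% = probe without protein; strong numbers were not always called active; many hits fall short of the cut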
CSC inhib – blocks cancer stem cells. AID 2717. 300,000 compounds, 1.1% hits. cancer stem cell-like cells viability, luminescence. inhibition, % at 7.5 µM;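 active = mean at 75% or more and at least half the replicates too; inconclusive = mean and replicates disagree; tested in HMLE shEcad cells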;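 note: 0% = median of negative and 100% = median of positive control wells; the first replicate is given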
Env fusion inh – blocks HIV Env-driven cell-cell fusion; HeLa-JRFL Env/CEM21 cell fusion, luciferase; inhibition, % at 12.3 µM; 360,000 compounds, 1.1% hits; AID 651610;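 active = mean replicate inhibition score of at least 50 and every replicate individually at or above 50; inconclusive = only one of the two criteria met; inactive = mean below 50 and not all replicates reaching 50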;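 note: 0% = plate neutral controls and 100% = maraviroc near 300 nM; one replicate is shown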
Rce1 inhib – yeast Ras-converting enzyme inhibition | AID 2563 | yeast membranes, quenched prenylated peptide cleavage fluorescence | Q03530 | 290,000 compounds, 0.27% hits | calls only;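 active = fall in fluorescence gain of 50% or more versus controls, with final raw signal at or below 3038400; inconclusive = same 50% fall but final raw signal above 3038400; inactive = fall in fluorescence gain under 50%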;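 note: plate controls were neutral control wells for no effect and wells lacking membranes for full effect; tested at 10 µM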
Target sequence (Q03530 whole entry, looked up): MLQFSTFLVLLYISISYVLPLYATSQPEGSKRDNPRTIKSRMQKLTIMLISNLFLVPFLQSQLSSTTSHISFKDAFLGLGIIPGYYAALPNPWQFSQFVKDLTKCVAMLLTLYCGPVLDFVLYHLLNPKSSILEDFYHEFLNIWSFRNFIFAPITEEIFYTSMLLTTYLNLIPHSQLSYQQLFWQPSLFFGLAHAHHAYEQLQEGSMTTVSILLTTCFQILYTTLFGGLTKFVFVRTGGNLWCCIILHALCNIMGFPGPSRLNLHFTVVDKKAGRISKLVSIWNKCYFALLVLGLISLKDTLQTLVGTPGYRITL
MT1-MMP act inh – inhibitors of human MT1-MMP activation | P50281 | HT1080 RFP-PRO-GFP cells, GFP/RFP ratio fluorescence, overnight; percent of plate control window, DMSO zero | GFP/RFP ratio change, % at 20 µM | 360,000 compounds, 0.061% hits | AID 651647;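 active = GFP/RFP ratio change of at least 30% with cell ATP level not reduced by more than half and red fluorescence within 50% of control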; note: strong numbers were not always called active
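Assay system: RFP-PRO-GFP reporter HT1080 cells; read-out basis: GFP/RFP fluorescence ratio; benchmarks: DMSO wells and RFP-L50D-GFP cells; doses: 20 µM single dose, 1% DMSO; schedule: overnight cell settling, then overnight compound exposure, 37 °C, 5% CO2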
UUG fidelity – yeast start codon fidelity modulation; S. cerevisiae UUG-firefly luciferase reporter, luminescence/redox ratio; activity score, % at 18.7 µM; 350,000 compounds, 0.13% hits;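 active = replicate mean at a twofold rise or more, about +100% in these data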;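 note: firefly luciferase made from a UUG start codon reports start codon fidelity; reporter light over untreated wells divided by growth signal over untreated wells; some hits fall short of that in this replicate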
eIF4H inh retest – second read-out of eIF4H inh, no call of its own (marks repeat the call); inhibition, %; compound at 20 µM; confirmation average;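 mean of two retest wells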
PABP polyA inh retest – further read-out of PABP polyA inh, marked with its call; inhibition, %; compound at 20 µM; confirmation repeats;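 mean of two retest wells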
MT1-MMP act inh RFP – recorded beside MT1-MMP act inh, whose call it bears; RFP signal change, %; measured here: RFP expression control read;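 0 = vehicle wells; hits needed this value within 50% of zero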
Starred values were filed as active, the others as inactive; i = inactive; ? = inconclusive; · = not tested or not shown.

SMILES | PABP polyA inh | eIF4H inh | CSC inhib | Env fusion inh | Rce1 inhib | MT1-MMP act inh | MT1-MMP act inh RFP | UUG fidelity | others
CC/C(=N\NC(=O)c1nnn(-c2nonc2N)c1-c1cccc(OC)c1)c1ccc(C)cc1 | 13.0 | -5.4 | -3.0 | 4.8 | i | 4.4 | -1.4 | -17.2
O=C(c1cccc2ccccc12)N1CCC(N2CCN(c3ccccc3)CC2)CC1 | -4.5 | -3.8 | 3.4 | 10.9 | i | 3.4 | 0.1 | -6.1
COc1cccc(CN(C)Cc2cc(=O)oc3c(C)c(C)ccc23)c1 | -7.7 | -2.3 | 17.2 | 2.0 | i | 5.3 | 4.1 | -10.0
COc1ccc(Cl)cc1Nc1cc(C)nc2ccccc12 | · | · | 9.5 | 49.9 | i | 0.7 | -7.4 | -10.8
O=C(O)CC/C(=N\NC(=O)CNC(=O)c1ccc(F)cc1)c1ccccc1 | -11.7 | -10.1 | -16.3 | -27.5 | i | 1.6 | 8.5 | -16.2
CCOC(=O)CCCCC(=O)c1[nH]c(=O)[nH]c1Cn1cnc2ccccc21 | 2.0 | -4.8 | -6.6 | · | i | -0.1 | 5.9 | -11.2
O=C(Cc1ccccc1)Nc1nc(-c2cccc([N+](=O)[O-])c2)cs1 | 3.6 | -1.0 | 1.7 | -7.5 | i | 0.3 | -1.0 | ·
Cc1ccc(S(=O)(=O)N2[C@@H](c3ccc(C(C)(C)C)cc3)C(C(=O)O)=CC[C@H]2c2ccc(Cl)cc2)cc1 | · | · | · | 32.2 | · | -5.9 | -2.2 | 11.8
Cc1nc(SC2CC(=O)N(c3ccccc3)C2=O)nc2c1CCCC2 (stereo unspecified) | -9.2 | -6.8 | -3.7 | 0.1 | i | 9.9 | 1.7 | -10.4
Cc1nn(CCCC(=O)N2CCc3ccccc3C2)c(=O)c2cc3sccc3n12 | -3.7 | -12.2 | -0.2 | 12.2 | i | 2.5 | 4.1 | -17.0
CCOc1ccc(Nc2nc(N)nc(CSC(=S)N3CCN(c4ccccc4)CC3)n2)cc1 | -2.9 | -8.3 | 42.4 | 13.1 | i | -0.1 | -13.5 | ·
Cc1ccc(C(=O)COC(=O)CN2C(=O)C3C4CCC(C4)C3C2=O)cc1[N+](=O)[O-] (stereo unspecified) | -7.0 | 4.1 | 0.2 | · | i | 4.3 | 3.3 | ·
S=C(NCc1ccncc1)Nc1cc(Cl)cc(Cl)c1 | -4.9 | -6.4 | -7.5 | 4.6 | i | 0.7 | -4.2 | -23.5
CC1=C(C(=O)OC2CCCC(C)C2)C(c2ccccc2)NC(=O)N1 (stereo unspecified) | -2.8 | -8.9 | -5.3 | 26.9 | i | 0.2 | -7.1 | 4.0
COc1cccc(CN2CCNC(=O)C2CC(=O)NCCOc2cccnc2)c1OC (stereo unspecified) | 9.5 | 4.2 | -2.1 | 6.8 | i | -3.0 | 6.5 | ·
O=C(NCCc1c[nH]c2ccccc12)Nc1cccc2ccccc12 | -12.8 | 1.2 | 11.8 | -119.2 | i | 0.1 | -1.6 | -17.9
O=C(O)CNS(=O)(=O)c1cccc(Cl)c1 | -14.5 | 7.2 | -4.0 | 0.8 | i | -4.3 | -2.0 | -13.1
CC1=NN(c2cccc([N+](=O)[O-])c2)C(=O)C1 | 12.6 | -4.9 | · | 10.3 | i | -0.1 | 0.6 | -24.8
COc1cccc(-n2c(CN3CCN(c4ccc(C)cc4)C(C)C3)nc3ccc([N+](=O)[O-])cc3c2=O)c1 (stereo unspecified) | 4.2 | 1.5 | -8.2 | 12.3 | i | -6.3 | -7.1 | 3.8
COc1ccc(OCCCC(=O)Nc2nnc(C3CCCO3)s2)cc1 (stereo unspecified) | -0.3 | -1.8 | -5.8 | 13.5 | i | 3.2 | 2.3 | -3.9
CC(C)N(C(=O)NC(=O)NCC1CCCO1)S(C)(=O)=O (stereo unspecified) | -4.0 | 1.6 | -7.6 | · | i | 2.4 | 2.8 | -7.8
COCCNc1nc(-c2cc(C)n(CCc3ccc(OC)cc3)c2C)cs1 | -1.0 | 88.2 | 2.7 | -9.6 | i | 4.6 | 13.4 | -11.0 | eIF4H inh retest=-2.6;PABP polyA inh retest=-2.8
C#CC(C)(C)NC(=O)CSc1nc2c(c(=O)n(C)c(=O)n2C)n1CCCC | 4.6 | 2.0 | -9.0 | -13.9 | i | 0.3 | 3.4 | -13.8
CCN(CCNC(=O)CS(=O)(=O)Cc1nc(-c2cccc(OC)c2)oc1C)c1ccccc1 | 1.5 | -2.5 | -0.8 | -52.3 | i | 1.9 | -0.5 | 12.7
Cc1csc(N2CCCC2c2nc3cc(Cl)c(N4CCCCC4)cc3n2CCCO)n1 (stereo unspecified) | · | · | 2.9 | 6.4 | i | 0.9 | -4.6 | -23.2
More compounds:
SMILES | PABP polyA inh | eIF4H inh | CSC inhib | Env fusion inh | Rce1 inhib | MT1-MMP act inh | MT1-MMP act inh RFP | UUG fidelity | others
Cc1ccc(-c2nnc(CN3CCCCC3C)o2)cc1 (stereo unspecified) | -6.2 | -3.6 | 4.1 | 4.1 | i | 3.7 | 4.1 | -9.4
CNS(=O)(=O)c1cccc(C(=O)OCC(=O)NCc2ccccc2)c1 | 0.9 | -0.6 | 0.3 | -20.6 | i | 4.6 | 8.5 | -3.9
COc1ccc(N(CC(=O)NCCc2ccc(OC)c(OC)c2)S(=O)(=O)c2ccc(OC)c(OC)c2)cc1 | -5.4 | 3.0 | -1.4 | -52.8 | i | -2.0 | -2.5 | -9.2
COc1cccc(C(=O)Nc2ccc(N3CCN(C(=O)c4ccco4)CC3)cc2)c1 | 5.8 | -1.4 | 50.2 | 16.3 | i | -2.6 | -9.2 | -10.7
O=C(O)Cc1ccc(NS(=O)(=O)c2ccccc2Cl)cc1 | -10.9 | -1.1 | 4.6 | 7.5 | i | 3.2 | 3.4 | ·
CC1=CC(=C2C(=O)c3ccccc3C2=O)C=C(C)N1C | 2.4 | -0.5 | -1.9 | · | i | 8.7 | 1.0 | ·
N#Cc1ccccc1NC(=O)C1CC(=O)N(c2ccc3c4c(cccc24)CC3)C1 (stereo unspecified) | -2.9 | 0.7 | 1.7 | -87.7 | i | -5.8 | 0.0 | ·
CCOC(=O)c1nnn(-c2nc(N(C)C)nc(N(C)C)n2)c1C | -3.3 | -16.1 | · | -6.9 | i | 1.9 | -1.0 | ·
CCn1c(SCC(=O)Nc2ccc3c(c2)OCO3)nc2ccccc21 | -6.7 | -10.0 | 4.7 | -5.8 | i | 12.9 | -8.5 | -11.8
CCN(C(=O)COC(=O)COc1ccccc1Cl)c1c(N)n(Cc2ccccc2)c(=O)[nH]c1=O | · | · | -7.4 | · | · | 1.1 | 1.7 | 8.4
O=C(Nc1ccc2c(c1)OCO2)C(=O)c1c[nH]c2ccccc12 | -6.1 | -7.1 | -10.8 | -291.2 | i | -0.6 | 0.8 | -9.1
CC(C)(C)NC(=O)N1CCn2cccc2C1c1ccccc1F (stereo unspecified) | -10.9 | 3.5 | -17.5 | 3.7 | i | -4.0 | -1.3 | ·
COc1ccc(-c2cnc(C(O)c3ccc(OC)c(F)c3)[nH]2)cc1 (stereo unspecified) | · | · | · | 12.2 | · | 2.0 | -2.8 | -25.4
COc1ccc([C@H]2C[C@@H](O)[C@H](n3cc(C4CC4)nn3)CN2C(=O)C2CCCCC2)cc1 | · | · | · | -14.5 | · | 3.1 | 0.1 | -9.8
COc1ccc(C2/C(=C(/O)c3ccccc3)C(=O)C(=O)N2CCO)cc1 (stereo unspecified) | 15.8 | -12.6 | -2.2 | · | i | -2.6 | -1.6 | -7.7
S=c1[nH]nc(-c2cccc(Cl)c2)n1/N=C/c1ccco1 | 13.4 | 13.5 | -5.4 | · | i | · | · | ·
CCOc1ccc(C(=O)Nc2cccc(C(C)=O)c2)cc1[N+](=O)[O-] | -2.4 | 1.4 | 5.9 | 0.4 | i | 0.0 | -2.2 | -10.4
COc1ccc(Nc2ccc(S(=O)(=O)N3CCCCC3)cc2[N+](=O)[O-])cc1 | -29.9 | -18.3 | · | 12.5 | i | 5.3 | -20.6 | -12.6
COc1ccc2[nH]cc(CCN=C3SCC(=O)N3C)c2c1 | 1.7 | 41.8 | 13.0 | -98.8 | i | 9.5 | 1.5 | -1.2
Cc1ccccc1OCC(=O)NNC(=O)CCN1C(=O)c2ccccc2C1=O | -8.2 | 0.3 | -1.4 | -6.8 | i | 2.3 | -1.9 | -12.5
Cc1cccc(NC(=O)c2cccnc2)c1 | -9.4 | -11.1 | -17.9 | -51.2 | i | 1.9 | -0.4 | -6.3
C=C(C)C(=O)Nc1ccc(OC(F)(F)C(F)F)c(NC(=O)C(=C)C)c1 | 4.2 | 13.6 | -8.5 | 24.8 | · | 2.0 | -0.8 | 635.5*
O=C(Cc1cccc(NC(=O)C2CCCN(C(=O)c3ccccc3)C2)c1)Nc1cccc(C(=O)N2CCOCC2)c1 (stereo unspecified) | · | · | · | 1.1 | · | 2.6 | 4.2 | -3.1
Cc1cc(-c2ccc(C)c(S(=O)(=O)NC(C)Cc3ccco3)c2)on1 (stereo unspecified) | -6.2 | -5.0 | -0.9 | 4.1 | i | 3.9 | -4.8 | 0.6
Cc1ccc(C2NC(=O)c3c(sc(C)c3C)N2)c(O)c1 (stereo unspecified) | 22.7 | 21.4 | 8.7 | -96.2 | i | -9.0 | -0.4 | ·
(continued)
SMILES | PABP polyA inh | eIF4H inh | CSC inhib | Env fusion inh | Rce1 inhib | MT1-MMP act inh | MT1-MMP act inh RFP | UUG fidelity | others
Cc1ccc(/C=N/NC(=O)CN2CCN(S(=O)(=O)c3ccc(Br)cc3)CC2)s1 | 24.3 | 4.3 | 26.1 | -3.9 | i | -2.7 | -5.3 | ·
Cc1c(NC(=O)COc2cccc(Cl)c2Cl)c(=O)n(-c2ccccc2)n1C | · | · | 11.4 | 2.3 | i | -0.5 | -0.1 | ·
CC1CCc2nn(CC(=O)NCCN3CCOCC3)cc2C1 (stereo unspecified) | -13.2 | -0.9 | · | -28.9 | i | 1.9 | 3.8 | -0.6
O=C(NCCCn1ccnc1)c1nn2c(C(F)(F)F)cc(-c3ccc(Br)cc3)nc2c1Cl | 8.7 | 1.9 | -4.3 | · | i | -4.0 | -11.3 | ·
C=CCN(N=Nc1cccc([N+](=O)[O-])c1)c1cccc([N+](=O)[O-])c1 | -14.7 | -10.0 | 39.4 | · | i | -2.3 | -3.7 | -9.7
COc1ccc2c(c1)OC13CCCCC1C2C(C(=O)c1ccccc1)C(=O)N3 (stereo unspecified) | 3.1 | -1.9 | 10.3 | 13.6 | i | -1.1 | 2.0 | -6.6
CCCc1cc(=O)oc2cc(C)cc(OCC(=O)NCc3ccncc3)c12 | -6.9 | -3.3 | -18.3 | -13.0 | i | -1.2 | 0.9 | -13.0
Cc1ccc(NC2CNC(=O)NC2=O)cc1C (stereo unspecified) | · | · | · | -42.2 | · | 0.8 | 2.8 | 0.8
CCC(=O)Nc1c(C#N)c2nc3ccccc3nc2n1-c1ccccc1C | 4.6 | -6.0 | -3.5 | ? | i | -3.3 | 1.8 | -8.3
CCn1c(SCC(N)=O)nc2c1c(=O)n(C)c(=O)n2C | 3.0 | -6.4 | -12.9 | -6.9 | i | 4.2 | -0.3 | -8.4
